From PubChem BioAssay
Prx2 Sm inh: blocks S. mansoni peroxiredoxin 2 enzymatic activity; AID 448; Potency, µM; S. mansoni Prx2 activity coupled to TGR/GSH (TGR is thioredoxin glutathione reductase), NADPH fluorescence loss, qHTS; some inactives read as strong as hits; 65,000 compounds, 0.07% hits; active means full or partial inhibition curve with a strong effect at the top dose; inconclusive means weaker partial or single-point curve; inactive means no accepted curve; further: series up to 57 µM; many of its hits are not listed in these tables
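Activity is read as the drop in NADPH fluorescence (365/450 nm), recorded every 30 sec for 8 min after H2O2 addition. Prx2 is coupled to TGR-driven NADPH oxidation through glutathione, in phosphate buffer pH 7.4.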
Anthrax LT inh: inhibitors of anthrax lethal toxin internalization | 70,000 compounds, 0.67% hits | AID 912 | Cells, anthrax lethal toxin internalization, FRET ratio (460/530) | Potency, µM (doses to about 40 µM), for inactives: at the highest dose activity change, negative = inhibition, hits mostly inhibitors; active = well fitted falling ratio curve with the 530 nm signal flat; inconclusive = other ratio curves, or a change in one channel alone; inactive = flat curves in the ratio and both channels; the % refers to the ratio; further: on the % scale 0 is the no-effect control and ±100 the full control effect; nearly all actives have a fitted effect of over 50% in size; tested in ME-180 cells; beta-lactamase reporter
Numbers without * were called inactive; u = inconclusive; x = not tested or not shown; & = joins results of further samples; [ ] = dose if it differs, or a comment. Potency means the concentration at half of the fitted maximal effect. An excerpt; count on the stated rates, not on these rows.

SMILES	Prx2 Sm inh	Anthrax LT inh
COc1cccc(NC2=NCC(=O)N2Cc2cccs2)c1	>57	-11%
CCOc1ccccc1NC(=O)N1CCCC1C(=O)Nc1nnc(CC)s1 (centres undefined)	>57	7%
Cc1cc2nc3c(=O)[nH]c(=O)nc-3n(CC(O)C(O)C(O)CO)c2cc1C (centres undefined)	>57&>57	u
CCOc1ccc(NC(=O)CN2CCN(CC(=O)Nc3ccc(F)c(F)c3)CC2)cc1	>57	10%
CCn1c(SCc2cccc(C(=O)O)c2)nnc1-c1ccccc1	>57	-15%
COCC(C)NC(=O)c1ccccc1OC(C)=O (centres undefined)	>57	-8%
Cc1cccc(CNc2ncnc3ccc(-c4cccc(C#N)c4)cc23)c1	>57	u
CC1CCCN(S(=O)(=O)c2cc(Cl)ccc2Cl)C1 (centres undefined)	>57	u
COc1cc(C)c(C(C)C)cc1S(=O)(=O)NCCCn1ccnc1	>57	-6%
COC(=O)c1ccc(C(=O)OC)c(NC(=O)CSc2nnc(-c3ccccc3Cl)o2)c1	>57	6%
Cc1cc(SCC(=O)c2ccc(Br)cc2)cc(C)[o+]1	>57	-10%[8 µM]
Cc1ccc(CNC(=O)CSc2nc(C)cc(C)c2C#N)cc1	>57	12%
N#CCCn1c2ccccc2c2nc3ccccc3nc21	>57	18%
COc1ccc(OC)c(S(=O)(=O)N(C)CC(=O)N2CCc3ccccc3C2)c1	>57	-14%
N#Cc1c(SCC(=O)N2CCCCC2)nsc1SCC(=O)N1CCCCC1	>57	-7%
CCCCn1c(NC(=O)c2ccco2)c(C(=O)OCC)c2nc3ccccc3nc21	>57	u
Cc1ccc(-c2nnc3ccc(SCC(=O)Nc4cc(C)on4)nn23)cc1	>57	u
CS(=O)(=O)N1CCC[C@@]2(CCN(c3ccccc3)C2)C1	>57	u
CCOc1ccc(-c2cn(S(=O)(=O)c3cccc4nsnc34)nc2N)cc1	>57	-6%
c1ccc(-n2ncc3c(N4CCN(c5ccccn5)CC4)nc(N4CCCCCC4)nc32)cc1	>57	x
Cc1occc1-c1nnc(SCC(=O)NCc2cccs2)n1-c1ccc(F)cc1	>57	-10%
CC(=O)NCCNc1ncnc2ccc(-c3ccoc3)cc12	>57	-2%
CCOC(=O)c1sc(NCc2ccco2)c(-c2nc3ccccc3s2)c1N	>57	-28%
COC(=O)c1ccccc1NC(=O)Nc1ccc(C(=O)N2CCCC2)cc1	>57	2%
CCCCOc1cc(C(=O)NCCN(CC)CC)c2ccccc2n1	>57	-3%[3.58 µM]
Clc1ccc(SCCn2cncn2)cc1	>57	2%
COCC(C)n1c(C)cc(C(=O)CN2C(=O)NC3(CCCCC3C)C2=O)c1C (centres undefined)	>57	7%
O=C1CN(C(=O)c2ccccn2)c2ccccc2N1	>57	-4%
NCCOC[C@H](N)C(=O)O	>57	-12%[8 µM]
Cn1cccc1Cc1nnc(SCC(=O)Nc2ccc(F)cc2)n1CCc1ccccc1	>57	-28%
CC(C)Cn1c(CN2CCCCC2C)nc2c1c(=O)n(C)c(=O)n2C (centres undefined)	>57	1%
Cc1ccc(Cc2c(C)nc3c(C(=O)O)cnn3c2C)cc1	>57	0%
COc1ccc(CCNC(=O)CN(c2ccc(OC)c(OC)c2)S(C)(=O)=O)cc1OC	x	3%
Cn1c(=O)c(-c2ccccc2)nc2cnc(Nc3ccccc3)nc21	>57	u
CCCCCCCCCCC(C)(C)C(=O)Nc1c(OC)cc(OC)cc1OC	x	u
CC(=O)OCC1=C(C(=O)O)N2C(=O)[C@@H](NC(=O)Cc3cccs3)[C@@H]2SC1	>57&>57	-3%[3.58 µM]

Record cards, from the list above:
Record of Cn1cccc1Cc1nnc(SCC(=O)Nc2ccc(F)cc2)n1CCc1ccccc1 = Prx2 Sm inh: >57; Anthrax LT inh: -28%
Record of Cn1c(=O)c(-c2ccccc2)nc2cnc(Nc3ccccc3)nc21 = Prx2 Sm inh: >57; Anthrax LT inh: u

The results go on:
SMILES	Prx2 Sm inh	Anthrax LT inh
C=CC[C@@H](C(=O)O)c1ccccc1	>57	-2%[8 µM]
CC1=C(C#N)C(c2ccoc2)C(C(=O)OCc2ccccc2)=C(N)S1 (centres undefined)	>57	5%
O=C(c1cc(C(F)(F)F)cc(C(F)(F)F)c1)N1CCC2(CC1)CN(c1ccncc1)C2	>57	-13%
O=C(Cn1cc2c(n1)CCCCC2)NCc1cccs1	>57	7%
COC(=O)CCn1nnc(-c2ccc(C(C)C)cc2)n1	>57	u
COc1cccc(-c2noc(CCC(=O)NC3CCCCC3)n2)c1	>57	3%
CCOC(=O)c1sc(C)c(C(=O)NCCCN2CCOCC2)c1N	>57	-14%
CCOC(=O)CNC(=O)Cn1cnc2c(nnn2-c2ccc(F)cc2)c1=O	>57	-14%
COc1ccc(C2CC3CC(c4ccccc4)N2O3)cc1 (centres undefined)	>57	-5%
CSc1nnc2c3cc(F)ccc3n(Cc3ccccc3)c2n1	>57	-5%
COc1ccccc1NC(=O)N1CCN(c2ccccn2)CC1	>57	6%
CCOC(=O)c1c(NC(=O)CNCCO)sc(C)c1C	>57	-1%

The final 2 records of the section before are carried over, then new ones follow.
SMILES	Prx2 Sm inh	Anthrax LT inh
COc1ccccc1NC(=O)N1CCN(c2ccccn2)CC1	>57	6%
CCOC(=O)c1c(NC(=O)CNCCO)sc(C)c1C	>57	-1%
O=c1c2ccccc2nc(SCc2cc(F)cc3c2OCOC3)n1Cc1ccco1	>57	0%
O=C1c2ccccc2C(=O)N1c1nc2nccc(-c3ccccc3)n2n1	>57	19%
Cc1ccc(-c2cn3c(n2)CCCC3)cc1	>57	u
CCOP(=O)(c1ccccc1Cl)C1(O)CCCCC1 (centres undefined)	>57	4%
Brc1ccc2nc3c(n2c1)CCCC3	>57	-14%
O=C(Cc1ccccc1)Nc1ccc2oc(-c3cccnc3)nc2c1	>57	-3%
COc1ccccc1/C=C/C1=CC2(C)CC1(C)C(c1ccccc1OC)CC2=O (centres undefined)	x	-10%[8 µM]
CC1CCCCC1NC(=O)CN(C)S(=O)(=O)c1cccc2nsnc12 (centres undefined)	>57	1%
N#CC1=C(N)N(c2ccc(Br)cc2)C2=C(C(=O)CCC2)C1c1cccnc1 (centres undefined)	>57	3%
COCCn1c(=O)c(-c2ccc(F)cc2)nc2cnc(N3CCOCC3)nc21	>57	u
CC(C(=O)O)C1SC(=O)NC1=O (centres undefined)	>57	-18%
O=C1c2ccccc2C(O)N1c1ccc(Cl)cc1 (centres undefined)	>57	-14%
COCCOC(=O)C1=C(C)Nc2nc(C)nn2C1c1ccccc1 (centres undefined)	>57	26%
C=CC1C(N2CCOCC2)C(C)(C)S1(=O)=O (centres undefined)	>57	1%
O=C(NCCOC(=O)c1ccncc1)c1ccccc1	x	-4%
CCc1nc(SCC(=O)N2CCOCC2)c2c(=O)n(C)c(=O)n(C)c2n1	>57	10%
O=C(NCCc1cn2ccccc2n1)c1ccccc1F	>57	13%
Cc1cnc(C(=O)OCC(=O)N2CCN(C(=O)c3ccco3)CC2)cn1	>57	-3%
Cn1c(=O)c2cn3ncccc3c2n(C)c1=O	>57	x
Cc1sc2nc(CSc3nc4ccccc4c(=O)n3CCCN3CCOCC3)[nH]c(=O)c2c1C	>57	13%
O=C(Cn1nnc(-c2ccccc2)n1)OCc1ccccc1	>57	3%
Cc1cc(N2CCc3ccccc32)n2ncnc2n1	>57	3%
CN[C@H]1[C@H](O)[C@@H](O[C@@H]2[C@H](O)[C@@H](O[C@H]3OC(CN)=CC[C@H]3N)[C@@H](N)C[C@H]2N)OC[C@@]1(C)O	>57	2%[3.58 µM]
CSc1nccc(Nc2ccccc2)c1C#N	>57	-12%
CC1CCc2nc(N)c(C#N)c(-c3ccncc3)c2C1 (centres undefined)	>57	-5%
Cc1ccc(C(=O)CSc2nc(N)cc(=O)[nH]2)cc1	>57	-6%
COc1ccc(NC(=O)c2cc3ccccc3o2)cc1	>57	u
COc1cccc(Cn2c(=O)c(C)nc3cnc(Oc4cccc(Cl)c4)nc32)c1	>57	u
COc1cc(C(=O)OC2C[C@H]3CC[C@@H](C2)N3C)ccc1O (some centres undefined)	>57	8%[3.58 µM]
COC(=O)c1ccccc1NC(=O)c1sc(N)nc1C	>57	11%
CCN(CC)CCN1C(=O)C(=O)/C(=C(/O)c2ccncc2)C1c1ccccc1F (centres undefined)	>57	-12%
CCc1ccc(NC(=O)c2noc3c2CCCCC3)cc1	>57	-14%
O=C(NCCN1CCCCCC1)c1ccc(N2CCCC2=O)cc1	>57	5%
C[C@@]1(CCOCc2ccccc2)NC(=O)NC1=O	>57	u
CC(=O)OC(C(=O)Nc1ccccc1)C(C)S(=O)(=O)c1ccccc1 (centres undefined)	>57	x
CCCCN(CCCC)CCn1cnc2c([nH]c3ccc(OC)cc32)c1=O	>57	-14%
CC1=C(\C=C/C(C)=C/C=C\C(C)=C\CO)C(C)(C)CCC1	>57	u
O=S(=O)(O)c1ccc(N=Nc2ccccc2)cc1	>57	u
COc1ccc(C(C#N)N2CCCCC2)cc1OC (centres undefined)	>57	1%
CN(C(=O)c1ccccc1)c1nc2ccccc2s1	>57	-13%
CS(=O)(=O)Nc1cccc(-c2nc(NCc3ccccc3)c3ccccc3n2)c1	>57	u
Cc1cc(C(=O)CSc2nnnn2C)c(C)n1CCc1ccc(Cl)cc1	>57	-8%
Nc1nonc1-c1nc2ccccc2n1CC(=O)NC1CCCC1	>57	-5%
CCOc1ccc(S(=O)(=O)Nc2ccccc2C(=O)Nc2ccccc2N2CCOCC2)cc1	>57	-7%
O=C(Nc1nccs1)c1cccc(S(=O)(=O)N2CCCCC2)c1	>57	19%
NC(=O)N1c2ccccc2C=Cc2ccccc21	>57&>57	u
COc1ccc2c(c1)C(=O)N(CCc1ccc(S(=O)(=O)NC(=O)NC3CCCCC3)cc1)C(=O)C2(C)C	>57	-3%[3.58 µM]
CCSCCOC(=O)C1=C(C)N(C)C(=O)NC1c1cc(OC)ccc1OC (centres undefined)	x	4%
CN(c1nnc(N)s1)C1CCCCC1	>57	-2%
Cc1nn(C(C)(C)C)c(OC(=O)c2cccs2)c1S(=O)(=O)c1ccccc1	>57	u
COc1ccc(OC)c(-c2cc(C(=O)NCCN3CCOCC3)no2)c1	>57	-12%
Cc1cc(C)cc(-n2nnc(C(=O)NCc3ccccc3Cl)c2N)c1	>57	-10%
COc1nc(N)nc(NC23CC4CC(CC(C4)C2)C3)n1	>57	-6%
CC(C)OCCCNC(=O)NC12CC3CC(CC(C3)C1)C2	>57	0%
CCN(CC)CCN1C(=O)c2oc3ccccc3c(=O)c2C1c1cccc(Br)c1 (centres undefined)	>57	9%
Cc1ccccc1NC(=O)CC1SC(=NC2CCCCC2)NC1=O (centres undefined)	>57	5%
Cc1ccc(CNC(=O)CCCNS(=O)(=O)c2cccc3nonc23)cc1	>57	-9%
O=S(=O)(Nc1cccnc1)c1ccc(Cl)c(C(F)(F)F)c1	>57	2%
O=C1[C@H]2CCn3c(=O)n(-c4ccccc4)c(=O)n3[C@H]2[C@H](O)[C@H]2O[C@@H]12	x	-3%[0.32 µM]
Cn1c(=O)c(C(=S)NC(=O)C2CC2)c(N)n(Cc2ccccc2)c1=O	>57	-27%

No new results follow: an excerpt of the list.
SMILES	Prx2 Sm inh	Anthrax LT inh
COc1ccc(OC)c(-c2cc(C(=O)NCCN3CCOCC3)no2)c1	>57	-12%
Cc1cc(C)cc(-n2nnc(C(=O)NCc3ccccc3Cl)c2N)c1	>57	-10%
COc1nc(N)nc(NC23CC4CC(CC(C4)C2)C3)n1	>57	-6%
CC(C)OCCCNC(=O)NC12CC3CC(CC(C3)C1)C2	>57	0%
CCN(CC)CCN1C(=O)c2oc3ccccc3c(=O)c2C1c1cccc(Br)c1 (centres undefined)	>57	9%
Cc1ccccc1NC(=O)CC1SC(=NC2CCCCC2)NC1=O (centres undefined)	>57	5%
Cc1ccc(CNC(=O)CCCNS(=O)(=O)c2cccc3nonc23)cc1	>57	-9%

(list continues)
SMILES	Prx2 Sm inh	Anthrax LT inh
O=S(=O)(c1ccccc1)N1CCC2(CCCN(Cc3ccncc3)C2)CC1	>57	u
O=C(c1c[nH]c2ccc(S(=O)(=O)N3CCC4(CC3)OCCO4)cc2c1=O)N1CCOCC1	>57	1%
CC(C)CCC(CCN1CCOCC1)c1ccc2c(c1)OCO2 (centres undefined)	>57	-5%
Cc1ccc(-n2ccnc2SCC(=O)N(CC(C)C)C2CCS(=O)(=O)C2)c(C)c1 (centres undefined)	>57	u
CC(=O)Nc1nonc1-n1nnc(C(=O)NCc2ccccc2)c1C	>57	12%
CN(C)CCCNCCCNC(=O)c1ccncc1	>57	-5%
CCCc1cc(=O)[nH]c(SCC(=O)c2c(N)n(C)c(=O)n(C)c2=O)n1	>57	0%
COc1cc2c(cc1OC)C(c1cccs1)CC(=O)N2 (centres undefined)	>57	-6%
Cc1ncoc1C(=O)Nc1cccc(Cl)c1C	>57	3%
CCC(C)c1cc(S(=O)(=O)N2CCOCC2)ccc1OC (centres undefined)	>57	u
CC(C)CCNC(=O)C(c1cccs1)N(CC1CCCO1)C(=O)Cn1nnc2ccccc21 (centres undefined)	>57	-5%
COc1ccc(C2=CC(c3ccc(OC)c(OC)c3)n3nnnc3N2)c(OC)c1 (centres undefined)	>57	u
NC(N)=Nc1ccc(Cl)cc1	>57	-5%
